Screening results (PubChem)
Sa helicase inh: inhibitors of S. aureus replicative helicase, primary screen, biochemical, fluorescence unwinding readout; AID 485395, 2010; purified S. aureus helicase, fluorescence unwinding assay; about half of the hits fall short of the stated cut; replicative DNA helicase (DnaC/DnaB), Staphylococcus aureus; hit rate 0.05% among 120,000; inhibition, %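 (tested at about 80 µM)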;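 active = both duplicates at 50% or more, or one of them with a favoured structure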;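 also: 0% = mean of negative control wells and 100% = mean of positive control wells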
MgrA DNA FP: S. aureus MgrA activity modulators, primary screen, biochemical, S. aureus Newman, fluorescence polarization. inhibition, %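 (about 10 µg/mL by stock and volumes)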. hit rate 0.13% among 84,000. AID 602314, 2012. MgrA-DNA binding;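 active = above 50% in either of two replicates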;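 also: 0% = protein plus DNA without compound and 100% = DNA alone without protein; higher means less MgrA bound to DNA so lower polarization; one replicate is shown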
* hit, by the source's call; . = not tested or not shown.

| nr | structure | Sa helicase inh | MgrA DNA FP |
| --- | --- | --- | --- |
| 1 | COC(=O)C1SCCN1C(=O)c1cc(-c2ccccc2)oc1C (stereo not drawn) | . | -3.2 |
| 2 | Cn1c2c(c3cc(C4CCCCC4)ccc31)C(=O)CCC2 | -5 | -0.2 |
| 3 | CSC1=N/C(=C/c2cccnc2)C(=O)N1Cc1ccccc1 | -13 | . |
| 4 | CC(=O)NC(C)(C)C1CC=C(C)/C(=N\O)C1 (stereo not drawn) | 5 | 1.8 |
| 5 | CCOC(=O)c1c(Nc2ccc(Cl)cc2)cc(C)nc1C | 4 | . |
| 6 | Cc1ccc(S(=O)(=O)NNC(=S)Nc2cccc(F)c2)cc1 | . | -1.6 |
| 7 | Cc1cccc(C(=O)NCCn2ccc3ccccc32)c1 | -24 | . |
| 8 | CSc1sc(C(=O)N/N=C/c2cccs2)c2c1C(O)CCC2 (stereo not drawn) | 15 | . |
| 9 | COC(=O)c1ccc(COC(=O)c2ccccc2C(F)(F)F)cc1 | -20 | -1.2 |
| 10 | CCCCOc1cccc(C(=O)N2CCCCC2C)c1 (stereo not drawn) | 10 | -2.1 |
| 11 | CC1CCCC(NC(=O)COC(=O)c2ccc(Br)cc2)C1C (stereo not drawn) | -4 | -2.1 |
| 12 | O=C(OCc1cc(=O)oc2cc3c(cc12)CCC3)C1CC(=O)N(Cc2ccco2)C1 (stereo not drawn) | 2 | . |

(more compounds)
| nr | structure | Sa helicase inh | MgrA DNA FP |
| --- | --- | --- | --- |
| 13 | CC(N)=NCc1cccc(CN)c1 | . | 2.4 |
| 14 | CC12CNC3(CO)CC1CCC32C (stereo not drawn) | 14 | 1.9 |
| 15 | O=C(CN1/C(=C(/O)c2ccccc2)C(=O)c2ccccc2S1(=O)=O)c1ccccc1 | -9 | 0.6 |
| 16 | O=S(=O)(c1ccccc1)N1CCc2ccccc2C1 | -2 | 4.4 |
| 17 | OCC(O)CNC(=S)NC1CCCCC1 (stereo not drawn) | 1 | 0.2 |
| 18 | COc1cc(CC#N)ccc1C | -10 | . |
| 19 | O=c1n(Cc2ccccc2)c2ccccc2n1Cc1ccccc1 | 4 | 0.6 |
| 20 | CSc1nnc(C2CCN(C(=O)N3CCCC3)CC2)n1C | -6 | 2.0 |
| 21 | C=CCn1c(=O)/c(=C/c2ccc3c(c2)OCO3)s/c1=C(/C#N)C(=O)C(C)(C)C | -242 | . |
| 22 | CN1C(=O)CS/C1=C\C(=O)c1cccs1 | -22 | . |
| 23 | c1ccc(N2CCN(c3ncnc4c3oc3ccccc34)CC2)cc1 | 12 | 3.6 |
| 24 | CC(=O)Nc1ccc(S(=O)(=O)N2CCN(C(=O)N3CCCC3)CC2)cc1 | 5 | -4.0 |

(listing goes on)
| nr | structure | Sa helicase inh | MgrA DNA FP |
| --- | --- | --- | --- |
| 25 | O=C1NC(=Nc2ccccc2)CS1 | 10 | 1.9 |
| 26 | COc1ccc(CCN(Cc2ccccn2)S(=O)(=O)c2ccc(C(C)(C)C)cc2)cc1OC | 2 | -4.8 |
| 27 | CN(C)c1ccc(/C=N/NC(=O)NC23CC4CC(CC(C4)C2)C3)cc1 | -30 | . |
| 28 | OCCN1CCN(CCc2ccccc2)CC1 | 6 | -3.2 |
| 29 | CCc1ccc(-n2nc3ccc(NC(=O)c4ccccc4Br)cc3n2)cc1 | -9 | 1.6 |
| 30 | Cc1cc2c(cc1NC(=O)CCc1ccccc1)n(C)c(=O)n2C | 13 | . |
| 31 | N#CC(C#N)=Cc1cccn1S(=O)(=O)c1ccc(F)cc1F | -88 | . |
| 32 | CSc1sc(=S)sc1SCCC#N | 8 | . |
| 33 | CCSc1nnc2c(n1)OC(/C=C/c1ccco1)N(C(C)=O)c1ccccc1-2 (stereo not drawn) | 12 | 2.5 |
| 34 | CN(CC(=O)O)S(=O)(=O)/C=C/c1ccccc1 | -4 | . |
| 35 | CC(=O)NC(NC(C)=O)C(C)(C)Cc1ccccc1 | 4 | 0.6 |
| 36 | CC(C)(C)c1ccc(-c2nc(N)nc(N)n2)cc1 | . | -0.9 |

Laid out differently: results already given
Results follow in this order: Sa helicase inh	MgrA DNA FP
1. COC(=O)C1SCCN1C(=O)c1cc(-c2ccccc2)oc1C (stereo not drawn)
→ .	-3.2
2. Cn1c2c(c3cc(C4CCCCC4)ccc31)C(=O)CCC2
→ -5	-0.2
3. CSC1=N/C(=C/c2cccnc2)C(=O)N1Cc1ccccc1
→ -13	.
4. CC(=O)NC(C)(C)C1CC=C(C)/C(=N\O)C1 (stereo not drawn)
→ 5	1.8
5. CCOC(=O)c1c(Nc2ccc(Cl)cc2)cc(C)nc1C
→ 4	.
6. Cc1ccc(S(=O)(=O)NNC(=S)Nc2cccc(F)c2)cc1
→ .	-1.6
7. Cc1cccc(C(=O)NCCn2ccc3ccccc32)c1
→ -24	.
8. CSc1sc(C(=O)N/N=C/c2cccs2)c2c1C(O)CCC2 (stereo not drawn)
→ 15	.
9. COC(=O)c1ccc(COC(=O)c2ccccc2C(F)(F)F)cc1
→ -20	-1.2
10. CCCCOc1cccc(C(=O)N2CCCCC2C)c1 (stereo not drawn)
→ 10	-2.1
11. CC1CCCC(NC(=O)COC(=O)c2ccc(Br)cc2)C1C (stereo not drawn)
→ -4	-2.1
12. O=C(OCc1cc(=O)oc2cc3c(cc12)CCC3)C1CC(=O)N(Cc2ccco2)C1 (stereo not drawn)
→ 2	.
13. CC(N)=NCc1cccc(CN)c1
→ .	2.4
14. CC12CNC3(CO)CC1CCC32C (stereo not drawn)
→ 14	1.9
15. O=C(CN1/C(=C(/O)c2ccccc2)C(=O)c2ccccc2S1(=O)=O)c1ccccc1
→ -9	0.6
16. O=S(=O)(c1ccccc1)N1CCc2ccccc2C1
→ -2	4.4
17. OCC(O)CNC(=S)NC1CCCCC1 (stereo not drawn)
→ 1	0.2
18. COc1cc(CC#N)ccc1C
→ -10	.
19. O=c1n(Cc2ccccc2)c2ccccc2n1Cc1ccccc1
→ 4	0.6
20. CSc1nnc(C2CCN(C(=O)N3CCCC3)CC2)n1C
→ -6	2.0

(further entries)
| nr | structure | Sa helicase inh | MgrA DNA FP |
| --- | --- | --- | --- |
| 37 | Cn1cc(SCC(=O)Nc2ccc(F)cc2)c2ccccc21 | 4 | . |
| 38 | O=C(Cc1csc(N2CCOCC2)n1)N/N=C1\CCCc2ccccc21 | 19 | . |
| 39 | NC(=O)c1cc(Cl)c(C(N)=O)cc1Cl | -3 | . |
| 40 | O=C(CN1C(=O)c2cccnc2Oc2ccc(Cl)cc21)NC1CCCCCC1 | 5 | . |
| 41 | O=c1[nH]c2ccccc2c(O)c1C=NCc1ccccc1 | . | -1.0 |
| 42 | COc1ccc(NC(=O)COC(=O)c2oc3ccc(Br)cc3c2C)cc1OC | 14 | . |
| 43 | Cc1noc(C)c1C(=O)Sc1ccc(C(F)(F)F)cn1 | . | 2.5 |
| 44 | COc1cc(/C=N/NC(=O)CCN2CCCCC2)cc(OC)c1OC | 13 | . |
| 45 | O=C(COc1ncnc2ccccc12)N1N=C2/C(=C/c3ccco3)CCCC2C1c1ccco1 (stereo not drawn) | 8 | . |
| 46 | CCCn1cc(SCC(=O)NCc2ccco2)c2ccccc21 | -13 | . |
| 47 | CC(=O)N1N=C(c2cccc(I)c2)OC1c1ccncc1 (stereo not drawn) | -12 | . |
| 48 | CCC1SC(C)C/C(=N\O)C1C (stereo not drawn) | 2 | 3.2 |

(further entries)
| nr | structure | Sa helicase inh | MgrA DNA FP |
| --- | --- | --- | --- |
| 49 | CSc1ccc(C=Nc2ccc(Cl)cc2Cl)s1 | . | 0.9 |
| 50 | CC1Cc2cc(S(=O)(=O)N(C)CC(=O)N3CCOCC3)ccc2N1C(=O)C1CC1 (stereo not drawn) | 5 | 2.1 |
| 51 | CN(C)/C=C1/C(=O)Nc2ccccc21 | 1 | 3.8 |
| 52 | COC(=O)c1sc2ccccc2c1OC(=O)c1ccccc1Cl | . | 0.6 |
| 53 | O=C(Cc1csc(-c2ccccc2)n1)N1CCN(C(=O)C2CCCO2)CC1 (stereo not drawn) | 0 | . |
| 54 | O=C(NCc1ccccc1)C1CCN(c2nnc(-n3cccc3)s2)CC1 | 9 | -0.8 |
| 55 | CC1C/C(=C/c2ccco2)C(C)N(C)C1 (stereo not drawn) | 8 | 2.0 |
| 56 | O=C(Cn1c(=O)oc2ccccc21)c1ccccc1 | . | 0.2 |
| 57 | N#Cc1ccc(NC(=O)c2c(Cl)cccc2Cl)cc1 | . | -1.2 |
| 58 | COc1cccc(NC(=O)Cn2c(=O)c3cccn3c3ccccc32)c1 | 4 | -0.6 |
| 59 | O=C(O)CC(=O)Oc1ccc(F)cc1 | . | -1.8 |
| 60 | NCC(=O)CCC(=O)O | . | 2.7 |

Other structures.
| nr | structure | Sa helicase inh | MgrA DNA FP |
| --- | --- | --- | --- |
| 61 | CCc1ccc(NC(=O)c2cc3c(=O)n(Cc4ccco4)ccc3nc2C)cc1 | 6 | . |
| 62 | Cc1cc(=O)n2[nH]c(-c3cccs3)cc2n1 | . | -5.3 |
| 63 | CC(Sc1nnc(C(F)(F)F)n1C)C(=O)Nc1ccc(N2CCOCC2)cc1 (stereo not drawn) | -14 | . |
| 64 | Nc1nnc(-c2ccccc2SCc2ccc(F)cc2)s1 | -14 | . |
| 65 | O=C(Cc1cccs1)Nn1c(Cc2cccs2)nc2ccccc2c1=O | 13 | -9.6 |
| 66 | CCc1ccc(NC(=O)C2CC(=O)n3c(nc4ccccc43)N2)cc1 (stereo not drawn) | -3 | -0.2 |
| 67 | CC(=O)NCCC(=O)N1CCN(c2cccc(C)c2C)CC1 | 4 | . |
| 68 | Cc1c(-c2csc(CS(=O)(=O)C(C)(C)C)n2)sc2ccccc12 | . | -0.2 |
| 69 | Cc1cc(C)c2c(CC(=O)Nc3nc(C)c(C(=O)OCC(C)C)s3)coc2c1 | 10 | 0.1 |
| 70 | Nn1c(SCCC(=O)O)nnc1-c1ccccc1 | 8 | -3.4 |
| 71 | O=C(O)CC1C(=O)OCN1C(=O)OCc1ccccc1 (stereo not drawn) | 2 | -2.6 |
| 72 | CCOC(=O)c1cnn(-c2ccccc2)c1NC(=O)c1ccccc1F | 21 | -0.1 |

Further compounds.
| nr | structure | Sa helicase inh | MgrA DNA FP |
| --- | --- | --- | --- |
| 73 | O=C(CC(=O)Nc1ccccc1Cl)Nc1ccccc1Cl | . | 1.6 |
| 74 | CCc1ccc(NC(=O)Cn2ncn3nc(-c4ccc(OC)cc4)cc3c2=O)cc1 | 14 | . |
| 75 | CC(C)n1c2ccccc2c2nnc(SCCCC(=O)c3ccc(F)cc3)nc21 | 6 | 0.0 |
| 76 | Cn1c(SCC(=O)c2ccccc2)nc2c1c(=O)[nH]c(=O)n2C | 15 | . |
| 77 | COc1ccc(-c2nc3cc(OC)c(OC)cc3c(=O)o2)cc1 | -34 | . |
| 78 | O=C1c2ccccc2C(=O)N1CNc1ccc(Oc2ccccc2)cc1 | . | 3.6 |
| 79 | Cc1sc2ncn(CC(=O)NCC3COc4ccccc4O3)c(=O)c2c1S(=O)(=O)N1CCOCC1 (stereo not drawn) | -28 | . |
| 80 | COc1ccc(C2CC(c3ccc(C)cc3)=NN2C(=O)CCCC(=O)O)cc1 (stereo not drawn) | . | -3.4 |

Some of the compounds tested, so the mix of outcomes need not match the whole.
